# Bioassay records (PubChem)
# FEN1 inh – inhibitors of human flap endonuclease 1; 390,000 tested, 0.35% active; AID 588795; Recombinant FEN1 flap cleavage, fluorescence, 15 min; Potency, µM (doses to about 114 µM), without a hit: at the highest dose activity change, negative = inhibition, most hits filed as inhibitors; also: nearly all actives have a fitted effect of over 65% in size
# Target sequence (P39748 whole entry, looked up): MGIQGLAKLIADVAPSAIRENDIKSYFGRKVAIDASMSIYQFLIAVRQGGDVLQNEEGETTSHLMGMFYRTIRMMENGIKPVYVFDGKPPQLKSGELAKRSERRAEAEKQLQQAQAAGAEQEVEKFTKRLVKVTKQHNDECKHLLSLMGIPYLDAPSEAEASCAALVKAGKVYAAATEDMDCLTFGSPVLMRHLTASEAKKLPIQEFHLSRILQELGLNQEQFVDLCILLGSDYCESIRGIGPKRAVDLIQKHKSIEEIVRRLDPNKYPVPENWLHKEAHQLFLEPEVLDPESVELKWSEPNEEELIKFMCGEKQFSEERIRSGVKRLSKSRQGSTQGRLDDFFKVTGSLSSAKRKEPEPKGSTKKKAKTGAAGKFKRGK
#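 FEN1 at 10 nM preincubated with compounds 15 min at room temperature, then flap DNA substrate added at 50 nM final. Signal read at 0 and 15 min; concentration-response fitted with four-parameter Hill equation.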
# N370S GC mod – inhibits or activates N370S mutant glucocerebrosidase | N370S GC spleen homogenate, 4MU-glucoside fluorescence | Potency, µM (series often up to 59.4 µM), inactives show top-dose activity change, negative = inhibition, most hits filed as inhibitors | P04062 | 330,000 tested, 0.092% active;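 also: 0% = full enzyme activity and -100% = no enzyme basal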
# Starred values were filed as active, the others as inactive; u = inconclusive; x = no result given; [ ] = another dose, or the depositor's remark. Calls follow the shape of the dose curve; as a rule, active = well fitted curve in the direction sought with a large enough effect; inconclusive = small, poorly fitted or top-dose-only effect, or another doubt; inactive = no such curve, though single readings can be large; an effect the other way counts as inactive or inconclusive. Unless noted, % is scaled to controls: 0 for no effect and ±100 for the full control effect; potency is read from the fitted curve at half-maximal effect.
No.	Compound	FEN1 inh	N370S GC mod
1	Cc1ccccc1CSCCNC(=S)Nc1ccccc1	-14%	2%
2	Cc1ccccc1OCCC(=O)OCC(=O)Nc1cc(S(=O)(=O)N2CCOCC2)ccc1Cl	6%	-5%
3	COc1ccc(NC(=O)c2noc3c2CCCCC3)cc1	-10%	-23%
4	Cc1ccc(-n2c(-c3nn(C)c(C)c3Cl)n[nH]c2=S)cc1	-9%	13%
5	CC1CCN(C(=O)CNC(=O)Cn2ccc3ccccc3c2=O)CC1	3%	2%
6	CC(=O)Nc1nnc(S(=O)(=O)N2CCN(c3ccc([N+](=O)[O-])cc3Cl)CC2)s1	11%	-2%
7	Cc1nc2scc(-c3ccccc3)c2c(=O)n1N=C1C=CC(=O)C=C1	-22%	-11%
8	O=C(NCN1C(=O)C2C3C=CC(C3)C2C1=O)Nc1nncs1 (stereo not given)	1%	-8%
9	Cc1cc(C)cc(NC(=O)C(=O)NCC(c2cccnc2)N2CCc3ccccc3C2)c1 (stereo not given)	-2%	x
10	CCCCC/C=C\C/C=C\C/C=C\CCCCCCC(N)=O	x	-7%
11	CCOC(=O)C1=CN(Cc2cccc(-c3ccc(F)cc3)c2)S(=O)(=O)N(C)C1C (stereo not given)	-9%	x
12	COc1ccccc1N1CCN(C(=O)c2sc3nc(C)nc(N4CCN(c5ccccn5)CC4)c3c2C)CC1	-13%	-9%
13	O=c1[nH]c(CSc2nc(-c3ccc(F)cc3)cs2)nc2ccccc12	-5%	-23%
14	Oc1ccc(C[C@H]2CNCCN2CCc2cccc(F)c2)cc1	-9%	-26%
15	O=C(Nc1nc2ccccc2s1)c1c(F)cccc1Cl	5%	-6%
16	Cc1ccc(C(=O)OCC(=O)N(C)c2c(N)n(Cc3ccccc3)c(=O)[nH]c2=O)s1	-4%	4%
17	O=C1CC(/C=C/c2ccccc2)=Nc2ccccc2N1	9%	10%
18	Cc1ccc(S(=O)(=O)N(C)c2ccc(OCC(=O)O)cc2)cc1	0%	6%
19	O=C(NCc1nc2ccccc2[nH]1)C1=C[C@@H](C2CC2)C[C@@H](OCc2ccc(CO)cc2)O1	-15%	25%
20	Cc1cc(C)c(S(=O)(=O)NCCCN2CCOCC2)cc1Br	-13%	-7%
21	Cc1ccc(CC(=O)NCCN2CCOCC2)cc1	12%	-1%
22	Cc1ccc(NC(=O)Cn2nnc3ccccc3c2=O)cc1	-7%	0%
23	O=C(C(=O)N1CCN(c2ccccc2F)CC1)c1c[nH]c2ccccc12	6%	-5%
24	CCOC(=O)[C@H]1[C@H]2COc3ccc(C)cc3[C@@H]2N2C(=O)CN(Cc3ccc(F)cc3)C(=O)[C@@]12C	-19%	x
25	CCn1c(Cc2ccccc2)nnc1SCC(=O)N1CCCC1=O	3%	2%
26	Cc1c(C(=O)Nc2ccc(OCc3ccccc3)cc2)cccc1[N+](=O)[O-]	-8%	2%
27	CC(=O)OCC1=C(C(=O)O)N2C(=O)C(NC(=O)c3ccc(F)cc3)C2SC1 (stereo not given)	12%	-4%
28	Cc1nn(-c2ccc(N3CCCCC3)nn2)c(C)c1CCC(=O)Nc1cc(F)ccc1F	-9%	-6%
29	CCn1c(SCC(=O)NCc2ccccc2)nnc1-c1cccnc1	14%	-13%
30	Cc1ccc(S(=O)(=O)CCC(=O)OC(C)C(=O)Nc2ccc(N3CCOCC3)cc2)cc1 (stereo not given)	-3%	x

# Structures shown so far that contain a COOH group, in the order listed:
No.	Compound	FEN1 inh	N370S GC mod
18	Cc1ccc(S(=O)(=O)N(C)c2ccc(OCC(=O)O)cc2)cc1	0%	6%
27	CC(=O)OCC1=C(C(=O)O)N2C(=O)C(NC(=O)c3ccc(F)cc3)C2SC1 (stereo not given)	12%	-4%

# (further entries)
No.	Compound	FEN1 inh	N370S GC mod
31	CCOc1ccc(NC(=O)Cn2cc(C(=O)c3ccccc3)c(=O)c3cc4c(cc32)OCO4)cc1	-6%	x
32	O=C(COC(=O)Cc1cccc(F)c1)NCCc1ccccc1	1%	x
33	Cc1ccc(SCc2nc(-c3cccnc3)no2)cc1	-12%	10%
34	CCCCCCNC(=O)c1cccc(-c2ccc(C)c3ccccc23)n1	-8%	28%
35	CC(=O)n1cc([C@@H]2C=C(C(=O)N3CCOCC3)O[C@H](OCc3ccc(CO)cc3)C2)c2ccccc21	-5%	20%
36	CCCCn1c(N)c(N(CCOC)C(=O)C2CC(=O)N(Cc3ccc(C)cc3)C2)c(=O)[nH]c1=O (stereo not given)	0%	2%
37	O=C(COc1ccccc1[N+](=O)[O-])NC1CC1	0%	4%
38	COc1ccc(NC(=O)CN(C2CCCCC2)S(C)(=O)=O)cc1Cl	4%	5%
39	COc1ccccc1NC(=S)NC(NC(=O)c1ccco1)C(Cl)(Cl)Cl (stereo not given)	1%	6%
40	Cc1ccc(C(=O)NC(=S)Nc2ccccc2C(F)(F)F)cc1	-15%	14%
41	CCOc1ccc(S(=O)(=O)N(C)CC(=O)N2CCCC2)cc1	-7%	-1%
42	CCn1c(SCC(=O)NCc2ccc(F)cc2)nc2c(c1=O)SC(C)C2 (stereo not given)	0%	5%
43	CC(C)(C)NC(=O)CSc1n[nH]c(=O)n1-c1ccccc1	3%	0%
44	c1ccc(Cc2c[nH]c3ccccc23)cc1	0%	1%
45	CC(C)c1cc(C(=O)OCC(=O)N2CCN(C(=O)c3ccco3)CC2)c(O)c(C(C)C)c1	3%	-8%
46	CCOc1cccc2cc(C(C)=O)oc12	-5%	14%
47	Cc1cc(C)cc(N(CCC#N)C(=O)COC(=O)CN2C(=O)NC(C)(C)C2=O)c1	11%	-5%
48	CCCCCn1c(N(C)Cc2ccccc2)nc2c1c(=O)[nH]c(=O)n2C	0%	11%
49	O=S1(=O)C=C(SCc2ccc(F)cc2)Nc2ccccc21	-12%	14%
50	Cc1ccc(C(=O)CSc2nc3c([nH]2)c(=O)n(C)c(=O)n3C)cc1	-3%	-2%
51	C/C(=N\NC(=O)c1ccc(F)cc1)c1ccc(NC(=O)Cc2ccccc2)cc1	-6%	-18%
52	Cc1ccc(S(=O)OCC(=O)Nc2cc(Cl)ccc2N2CCOCC2)cc1 (stereo not given)	-3%	u
53	CCC(C)(C(=O)NC1CCCCC1)N(Cc1ccco1)C(=O)c1ccccn1 (stereo not given)	10%	5%
54	Cc1nn2c(N)c(-c3ccccc3)cnc2c1-c1ccccc1	13%	3%
55	NC(=O)c1cc([N+](=O)[O-])ccc1NCc1ccc(C(=O)O)cc1	-1%	-8%
56	O=C(COC(=O)c1cccc(S(=O)(=O)N2CCc3ccccc32)c1)NC1CCS(=O)(=O)C1 (stereo not given)	-1%	6%
57	COc1ccc(Nc2nc(N)nc(CSC(=S)N3CCCCC3)n2)cc1	-14%	1%
58	O=C(Nc1ccc(Oc2cccnc2)cc1)C1CCN(Cc2ccc(F)cc2)CC1	-3%	-11%
59	COc1ccc(-c2cn(-c3ccc(C)cc3)c(S(=O)(=O)CC(=O)Nc3ccccc3)n2)cc1	0%	x
60	CCOC(=O)N1CCC(N2Cc3cccc(C(=O)NCc4ccccn4)c3C2=O)CC1	2%	2%

# Profiles, quoted from the list. Values in the order: FEN1 inh, N370S GC mod
# Entry for O=C(COc1ccccc1[N+](=O)[O-])NC1CC1 = 0%, 4%
# Entry for CCOc1ccc(S(=O)(=O)N(C)CC(=O)N2CCCC2)cc1 = -7%, -1%
# Entry for O=C(Nc1nc2ccccc2s1)c1c(F)cccc1Cl = 5%, -6%
# Entry for CCOC(=O)N1CCC(N2Cc3cccc(C(=O)NCc4ccccn4)c3C2=O)CC1 = 2%, 2%
# Entry for NC(=O)c1cc([N+](=O)[O-])ccc1NCc1ccc(C(=O)O)cc1 = -1%, -8%

# The list goes on.
No.	Compound	FEN1 inh	N370S GC mod
61	N#CCC(=O)N1CC2(CC(c3cccc(NC(=O)COc4ccc(Cl)cc4)c3)=NO2)C[C@@H]1C(N)=O (stereo not given in full)	7%	-8%
62	O=C(O)/C=C/c1cn(-c2ccccc2)nc1-c1cccc([N+](=O)[O-])c1	-5%	6%
63	COC(=O)C1CN(C(=O)c2cccc(OC(F)F)c2)c2ccccc2O1 (stereo not given)	-7%	4%
64	N=C1SC(c2ccccc2)C(=O)N1c1ncc(Cc2ccccc2Cl)s1 (stereo not given)	1%	9%
65	CCCCC(=O)N1CCN(c2nc3ccc(OCC)cc3s2)CC1	-2%	-2%
66	COCCN(CCOC)C(=O)COC(=O)c1ccc(Cl)c(S(=O)(=O)N(C)c2ccccc2)c1	-3%	-1%
67	CC(=O)NC1=NC(=O)/C(=C/N2CCCCC2)S1	-10%	-10%
68	CN(C)c1cccc(NC2=CC(=[N+]3CCOCC3)CC(C)(C)C2)c1	-9%	7%
69	CCCC1CCC(C(=O)n2nc(N)c3cc4ccc(OC)cc4nc32)CC1 (stereo not given)	8%	2%
70	N/C(=N\OC(=O)C1CC1)c1ccc([N+](=O)[O-])s1	-1%	-20%
71	O=C(NC1=NCCS1)c1ccc([N+](=O)[O-])cc1Cl	-6%	-5%
72	C=CCOc1ccccc1CNCc1cccnc1	-19%	0%
73	CC(C)COC(=O)C(C#N)c1nc2ccccc2nc1N1CCN(Cc2ccc3c(c2)OCO3)CC1 (stereo not given)	-6%	-7%
74	O=C(NCCc1csc(-c2ccc(F)cc2)n1)c1cccs1	12%	x
75	O=C(NCc1cn2ccccc2n1)c1ccc(Br)o1	-3%	18%
76	COC(=O)c1c(C)c(C)nc(N)c1C#N	-8%	6%
77	COCCN(CCOC)C(=O)c1ccc(SCc2ccc(C)cc2)c([N+](=O)[O-])c1	-1%	6%
78	COc1ccc(CNC(=O)C(=O)NCC(c2cccs2)S(=O)(=O)c2cccs2)cc1 (stereo not given)	0%	x
79	O=C(Nc1cccc(C(=O)N2CCN(c3ccc(F)cc3)CC2)c1)c1nsc2ccccc12	10%	x
80	Cn1c(N)c(C(=O)COC(=O)CNC(=O)c2ccc(Cl)cc2Cl)c(=O)n(C)c1=O	-7%	x
81	COCCn1c(-c2ccccc2)cnc1N	-2%	1%
82	Fc1ccc(C(c2nnnn2Cc2ccco2)N2CCN(C3CCCCC3)CC2)cc1 (stereo not given)	1%	-2%
83	Cc1ccc(C)c(C(=O)CC2(O)C(=O)Nc3ccccc32)c1 (stereo not given)	4%	-1%
84	Cc1nn(CC2CC2)c(=O)n1-c1ccccc1	2%	16%
85	COc1ccc(C(=O)Nc2cccc(/C(C)=N/NC(=O)c3ccc([N+](=O)[O-])cc3)c2)cc1OC	3%	5%[12.8 µM]
86	O=C(COc1ccc2ccc(=O)oc2c1)N1CCN(C(=O)C2COc3ccccc3O2)CC1 (stereo not given)	-8%	-1%
87	O=C1CCCc2c1sc1nc3n(c(=O)c21)CCCCC3	-14%	7%
88	Cc1cccc(C)c1NC(=O)CCc1nnc2ccc(N3CCCC3)nn12	6%	1%
89	CC1CCCC(CC(=O)O)(CC(=O)O)C1 (stereo not given)	1%	22%
90	CC1CC(=O)Nc2ccc([N+](=O)[O-])cc2N1C (stereo not given)	-1%	-8%
91	Cc1nn(Cc2ccccc2)c(Cl)c1C(=O)NCCc1ccc(Cl)cc1	-8%	0%
92	CC(C)OC(=O)CCCNc1ccc([N+](=O)[O-])cc1[N+](=O)[O-]	-12%	-14%
93	Cc1ccc(C(=O)NCCSC2CCCCC2)cc1S(=O)(=O)Nc1ccccc1	-19%	13%
94	Cc1nn(CCCC(=O)Nc2cnn(Cc3ccc(F)cc3)c2)c(C)c1[N+](=O)[O-]	11%	6%
95	Cc1oc(-c2cccc(Br)c2)[n+]([O-])c1C	-8%	6%
96	Cc1ccccc1-c1nc(CN2CCC(C(=O)NCC3CCCO3)CC2)c(C)o1 (stereo not given)	-1%	-8%
97	COc1cccc(C(=O)NCC2(c3ccc(OC)c(OC)c3)CCCC2)c1	-4%	u
98	CCOc1ccc(N(CC(=O)NC2CCCCC2)C(=O)CCC(=O)Nc2nc(C)cs2)cc1	15%	4%
99	Cc1nc(SCC(=O)N2CCCCCC2)[nH]c(=O)c1C	-2%	0%
100	CCOC(=O)C1=C(CNCCc2ccc(Cl)cc2)NC(=O)NC1c1cccc([N+](=O)[O-])c1 (stereo not given)	-11%	19%
101	COc1ccc(OC)c(-n2nnnc2SCC(=O)Nc2ccc(C(=O)N3CCCCC3)cc2)c1	10%	-9%
102	O=C1Cc2ccccc2C(=O)N1OCc1ccc(Cl)cc1	-7%	-2%
103	CCC(=O)OCC(=O)Nc1cc([N+](=O)[O-])ccc1OC	-4%	-24%
104	O=c1[nH]c2cc3c(cc2cc1CN(Cc1cccnc1)C(=S)NCc1ccco1)OCO3	-15%	19%
105	O=C(Nc1nc(-c2nc3ccccc3s2)cs1)c1ccc(S(=O)(=O)N2CCOCC2)cc1	-4%	-8%
106	O=C(Oc1ccc2[nH]cc(CCN3C(=O)c4ccccc4C3=O)c2c1)c1ccco1	-22%	6%[2.35 µM]
107	Cc1cccc(NC(=O)CSc2nnc(CCCCCNC(=O)OC(C)(C)C)o2)c1C	10%	6%
108	Cc1ccc(OCC(=O)Nc2ccncc2)cc1	-4%	-1%
109	O=S(=O)(c1ccc(Cl)cc1)N1CCSC1c1ccco1 (stereo not given)	-20%	-4%[2.35 µM]
110	O=C(NCc1ccc2c(c1)OCO2)c1ccc(COc2cccc(Cl)c2)o1	1%	u
111	Cc1cc(C)n(-c2nnc(Cl)c3ccccc23)n1	4%	15%
112	CC(C(=O)Nc1ccc2c(c1)OCCO2)c1ccc([N+](=O)[O-])cc1 (stereo not given)	-10%	1%

# This is a subset, and most or all hits are left out here.
